H5N1 antiviral: antiviral screen in MDCK cells, H5N1 avian flu. cytopathic effect, luminescence, 72 h; stronger effect = higher value; no value below 0 was filed and about half of the inactive calls have no number; reference of the scale not given here. inhibition, % at 50 µM. 96,000 compounds, 0.07% hits. AID 740; in the data active = inhibition above about 25%
* = called active by the depositor; i = inactive.

mol	H5N1 antiviral
CCOC(=O)C1=C(c2ccccc2)Nc2ncnn2C1c1cc(OC)ccc1OC (stereo unspecified)	1.3
CCn1c(SCc2ccc(C)cc2)nnc1-c1nn(-c2ccccc2)ccc1=O	5.5
CCn1c(NC(=O)c2ccco2)c(-c2ccccc2Cl)c(=O)c2ccccc21	0.3
COc1ccccc1NC(=O)CSc1nnc(-c2ccco2)n1Cc1ccco1	0.6
COc1ccc(C(=O)CN(C(=O)c2ccc(Cl)cc2)N2C(=O)C3CCCCC3C2=O)cc1 (stereo unspecified)	i
O=c1cc(CSc2nnc(COc3ccccc3)o2)c2ccccc2[nH]1	i
COc1ccc(C(C(=O)NC(C)(C)C)N(C(=O)CNC(=O)c2cccs2)c2ccc(C(C)C)cc2)cc1OC (stereo unspecified)	i
Cc1ccc(C)n1-n1c(C)nc2scc(-c3ccccc3)c2c1=O	1.1
NC(=O)C1CCN(C(=O)CN2CCCc3ccccc32)CC1	0.6
O=C(NC1CCCC1)c1ccc(Br)o1	i
N=c1c2c3c(sc2nc2n1CCCCC2)CCCCC3	i
N#CC1=C(N)OC2=C(C(=O)CCC2)C1C1CC=CCC1 (stereo unspecified)	i
CCCn1nnc(NC(=O)COc2ccc(C3CCCCC3)cc2)n1	i
O=C(Nc1cc2c(cc1Br)OCCO2)c1cccs1	i
Cc1ccc(-n2c(=O)cc(N3CCN(C(=O)c4ccco4)CC3)[nH]c2=O)cc1	0.8

More results follow.
mol	H5N1 antiviral
COc1ccc(S(=O)(=O)Nc2cc(C)cc(C)n2)c2ccccc12	4.9
CC(Cc1ccccc1)NC(=O)C1CCCNC1=O (stereo unspecified)	0.2
COC(=O)c1ccc(CN2C(=O)NC3(CCCc4ccccc43)C2=O)o1 (stereo unspecified)	0.4
O=C(Nc1nncs1)C1c2ccccc2Oc2ccccc21	0.2
CCN1CCN(c2cc(C(C)(C)C)nc3c(-c4ccccc4)c(C)nn23)CC1	i
O=C(Cc1ccccc1)NCCc1cn2ccsc2n1	0.2
CCC(=O)Nc1cc(C)c(NC(=O)c2ccco2)cn1	0.7
COC(=O)Cc1c(C)c2ccc(OCc3nn[nH]n3)cc2oc1=O	0.5
COc1ccc(CCNC(=O)CCC(=O)N2CCN(S(=O)(=O)c3ccccc3)CC2)cc1OC	i
O=C(Nc1cc(C(F)(F)F)ccc1N1CCOCC1)c1ccccc1F	i
CC(CNC(=O)c1ccc(-c2ccccc2)cc1)CN(C)C (stereo unspecified)	i
Cc1ccc2nc(-c3cc(N)cc(N)c3)oc2c1	i
CCOC(=O)C(Sc1ncc(C#N)c(N)n1)C(C)C (stereo unspecified)	i
Cc1ccc(C(C)C)c(OCCCN2CC(C)OC(C)C2)c1 (stereo unspecified)	i
O=S(=O)(c1cccc(Cl)c1)N1CCCC1	0.9

(listing goes on)
mol	H5N1 antiviral
C=CCc1cccc(C2Nc3ccccc3C(=O)N2O)c1O (stereo unspecified)	1.5
CCOC(=O)c1c(NC(=O)CN2CCCCC2)sc2c1CCCC2O (stereo unspecified)	1.7
CSc1nc2c(c(C(F)(F)F)n1)CC(C)CC2 (stereo unspecified)	i
Cc1ccc(OCC(=O)c2ccc3c(c2)CCCC3)cc1C	i
CC(C)CCn1c(C(C)O)nc2ccccc21 (stereo unspecified)	0.2
c1ccc2c(-c3nc(-c4ccncc4)no3)cccc2c1	i
CC1CCN(C(=O)Cn2c(SCC(=O)Nc3nccs3)nc3ccccc32)CC1	i
O=C(Nc1ccc(N2CCOCC2)cc1)c1cnsn1	i
CC(=O)c1ccc(OCC(O)CN2CCN(c3ccccn3)CC2)cc1 (stereo unspecified)	i
O=c1ccc2cc(S(=O)(=O)Nc3ccc(F)cc3)ccc2o1	3.4
COc1ccc(NC(=O)CSc2nnc(CNC(=O)COc3ccc(Cl)cc3)o2)c(OC)c1	i
CCN1C(=O)CC(N2CCN(C(c3ccccc3)c3ccccc3)CC2)C1=O (stereo unspecified)	1.2
COc1ccc(OC)c(C(c2nnnn2C2CCCC2)N2CCN(c3ccccc3)CC2)c1 (stereo unspecified)	i
O=C(Cc1cccs1)N1CCCC(c2nc3c(nnn3Cc3ccc(F)cc3)c(=O)[nH]2)C1 (stereo unspecified)	i
Cc1cccc(-n2ncc3c(N4CCc5ccccc54)ncnc32)c1	i

Carrying on:
mol	H5N1 antiviral
O=C(O)CCC(=O)N1CCN(c2cccc(Cl)c2)CC1	0.0
COC(=O)c1ccc(CSc2nc3ccccc3c(=O)n2-c2cccc(OC)c2)o1	i
CCCCOC(=O)Cn1c(=O)c2c(nc(Br)n2Cc2ccccc2)n(C)c1=O	0.3
N#CC1=C(N)Oc2c(sc3ccccc23)C1c1ccco1 (stereo unspecified)	7.0
Cc1nc(N)sc1-c1csc(NCc2ccccc2)n1	0.1
Cc1ccc2[nH]c(=O)c(CN(Cc3cccnc3)Cc3nnnn3CCN3CCOCC3)cc2c1	3.9
Cc1ccc(-c2ccc(=O)n(CC(=O)N3CCN(c4cc(Cl)ccc4C)CC3)n2)cc1	0.7
COc1ccccc1N1Cc2ccccc2C1	i
COc1ccccc1N1CCN(C(=O)C(NS(=O)(=O)c2cccs2)c2ccccc2)CC1 (stereo unspecified)	3.6
O=C(O)CCCNC(=O)c1cncc(Br)c1	0.3
O=C(O)COc1ccc2nsnc2c1Cl	i
Cc1csc(NC(=O)CCC(=O)N(CC(=O)NC2CCCC2)Cc2ccco2)n1	0.0
O=C(CSCC(=O)Nc1ccccc1)N/N=C/c1c(O)ccc2ccccc12	i
O=C(CCCc1c[nH]c2ccccc12)N1CCN(c2ccc(N3CCOCC3)nn2)CC1	0.1
CCOC(=O)c1c(=O)n(O)c2ccc(C)cc2[n+]1[O-]	i

Continued:
mol	H5N1 antiviral
Cc1ccc(S(=O)(=O)N2CCCC2C(=O)Nc2nccs2)cc1 (stereo unspecified)	0.6
O=C(c1cccc(C(=O)N2CCc3ccccc32)n1)N1CCc2ccccc21	i
COc1ccc(C(=O)Nc2ccccc2-c2nnn(CC(=O)NCc3ccco3)n2)cc1	0.3
O=C1C(c2ccccc2)C(c2ccccc2)NC(c2ccccc2)C1c1ccccc1 (stereo unspecified)	i
COc1ccc(-c2ccc(SCC(=O)NCc3ccco3)nn2)cc1OC	0.3
NS(=O)(=O)c1ccc(CCNC(=O)C2CCN(S(=O)(=O)c3cnc[nH]3)CC2)cc1	0.1
CC(=O)Nc1cccc(NC(=O)c2oc3ccccc3c2C)c1	i
COc1ccccc1N1C(=O)CC(Sc2nc(C)cc(C)n2)C1=O (stereo unspecified)	i
COc1cc(NC(=O)C(C)C)ccc1NC(=O)c1ccco1	i
CCN1CCN(Cc2ccc(NC(=O)Nc3ccccc3Cl)cc2)CC1	i
O=S(=O)(NCC1OCCc2ccccc21)c1ccc(S(=O)(=O)N2CCOCC2)cc1 (stereo unspecified)	1.0
O=C(O)C1CCCCC1C(=O)Nc1ccc(Cl)cc1 (stereo unspecified)	1.3
CCn1c(C(=O)Nc2ccsc2C(=O)OC)cc2sc(Cl)cc21	5.4
Cc1ccc2c(c1)cc(CN(Cc1ccco1)S(=O)(=O)c1ccccc1)c1nnnn12	0.2
O=C(NCc1ccccc1)C(c1cccs1)N(C(=O)c1csnn1)C1CC1 (stereo unspecified)	i

(cont.)
mol	H5N1 antiviral
Cc1nc(C)c(-c2csc(NCc3ccco3)n2)s1	i
COc1ccc(-c2nn(-c3ccccc3)cc2C(=O)NCCCn2ccnc2)cc1	i
O=C(COc1ccc2ccccc2c1)N1c2ccccc2Sc2ccccc21	2.3
S=c1[nH]c2cc(Cl)ccc2s1	i
CC(C)(NO)/C(=N/O)c1cccs1	1.3
CCOC(=O)c1c(C)c(C(=O)NC2CCCCCC2)c(C)n1C	i
CCN(CC)CCOC(=O)C1c2ccccc2Oc2ccccc21	4.1
CCN(CC)S(=O)(=O)c1cc(NC(=O)Cn2cnc3ccccc3c2=O)ccc1C	1.2
N#Cc1nc(COc2ccccc2Cl)oc1N1CCCCCC1	1.6
CC1NC(=O)NC1CCCCCC(=O)NCCc1ccccc1 (stereo unspecified)	i
CCOC(=O)CCP(=O)(O)C(O)(c1ccccc1)c1ccccc1	i
CC(=O)N(CN1C(=O)C2CC=CCC2C1=O)c1cccc(Cl)c1 (stereo unspecified)	i
O=C(Nc1ccccc1N1CCN(c2ccc(F)cc2)CC1)C1CCCCC1	0.9
c1ccc(CSc2nnc(-c3cccs3)o2)cc1	0.2
COC(=O)c1cn(NC(=O)C2CCCCC2)c(=O)c2ccccc12	0.6

Structural class: those above with two or more sulfur atoms
mol	H5N1 antiviral
CC1CCN(C(=O)Cn2c(SCC(=O)Nc3nccs3)nc3ccccc32)CC1	i
Cc1nc(N)sc1-c1csc(NCc2ccccc2)n1	0.1
COc1ccccc1N1CCN(C(=O)C(NS(=O)(=O)c2cccs2)c2ccccc2)CC1 (stereo unspecified)	3.6
Cc1ccc(S(=O)(=O)N2CCCC2C(=O)Nc2nccs2)cc1 (stereo unspecified)	0.6
NS(=O)(=O)c1ccc(CCNC(=O)C2CCN(S(=O)(=O)c3cnc[nH]3)CC2)cc1	0.1
O=S(=O)(NCC1OCCc2ccccc21)c1ccc(S(=O)(=O)N2CCOCC2)cc1 (stereo unspecified)	1.0
CCn1c(C(=O)Nc2ccsc2C(=O)OC)cc2sc(Cl)cc21	5.4
O=C(NCc1ccccc1)C(c1cccs1)N(C(=O)c1csnn1)C1CC1 (stereo unspecified)	i
Cc1nc(C)c(-c2csc(NCc3ccco3)n2)s1	i
S=c1[nH]c2cc(Cl)ccc2s1	i
c1ccc(CSc2nnc(-c3cccs3)o2)cc1	0.2

Next section
mol	H5N1 antiviral
COc1ccc(CC(=O)Nc2ccc(OC)c(NC(=O)c3ccco3)c2)cc1	i
COCCCNC(=O)c1c(F)c(F)c(F)c(F)c1F	0.3
CN1C(c2ccc(F)cc2)=CS/C1=C(\C#N)c1nnc2n1-c1ccccc1SC2	2.1
CCOc1ccc(N=Cc2c(O)n(-c3cccc(C)n3)c(=O)c3ccccc23)cc1	i
CCCC(=O)N1CCCC(c2nc(-c3cccs3)no2)C1 (stereo unspecified)	2.8
CCOc1ccc(N2C(=O)CC(N3CCN(C(=O)CN4CCCC4)CC3)C2=O)cc1 (stereo unspecified)	0.6
COc1ccc(N2CCN(C(=O)CSc3nnc4c(C)cc5cc(C)ccc5n34)CC2)cc1	4.2
COC(=O)c1ccc(NC(=O)c2ccccc2SC)cc1	1.8
O=C(COC(=O)c1cc[n+]([O-])cc1)Nc1ccc2c(c1)OCCO2	0.1
O=C(Nc1nc(-c2ccncc2)cs1)C1COc2ccccc2O1 (stereo unspecified)	0.5
CC1CCN(CCCNC(=O)c2coc3nc4ccccc4nc23)CC1	0.5
Cc1c(Nc2cc(=O)oc3ccccc23)c(=O)n(-c2ccccc2)n1C	i
O=c1[nH]c(SCc2nc3ccccc3n2Cc2ccccc2)nc2ccccc12	i
CCn1c(CC(=O)Nc2ccc(C)cc2)nnc1SCC(=O)Nc1nc(C)cs1	0.3
CCOC(=O)CN(c1ccccn1)S(=O)(=O)c1ccccc1	1.2

(next part)
mol	H5N1 antiviral
CCOC(=O)C(CCCOc1ccccc1C)C(=O)OCC	0.2
Cc1nc2ccccc2cc1C(=O)O	i
COCCn1c(Cc2ccccc2)nnc1SCC(=O)N(C)C	1.2
Cc1cc2ncc(C(=O)Nc3ccccc3)c(C)n2n1	i
COc1ccccc1N1CCN(/N=C/c2c(C)nn(-c3ccccc3)c2C)CC1	i
O=C(CCn1cnc2ccccc2c1=O)Nc1ccc(S(=O)(=O)N2CCCCC2)cc1	0.8
COc1ccccc1N1CCN(c2cc(C)nc3nc(C)nn23)CC1	i
COc1cc(/C=C2\C(=O)NC(=O)N(c3ccccc3)C2=O)cc(OC)c1O	i
COc1ccc(Cn2c(O)c(C=NCCCn3ccnc3)c(=O)[nH]c2=O)cc1	i
COc1cccc(NC(=O)C2CCCN2C(=O)Nc2cccc(F)c2)c1 (stereo unspecified)	7.0
CCCCCCn1c(SCC(=O)c2ccccc2)nc2c1c(=O)[nH]c(=O)n2C	i
Cc1cccc(OCc2nc(-c3ccccn3)n[nH]2)c1	i
O=C(Cc1cccs1)Nc1nnc(SCC(=O)NC2CCCCC2)s1	0.5
CCCC(=O)NC(Nc1cccc(C(F)(F)F)c1)C(Cl)(Cl)Cl (stereo unspecified)	i
CCCC(=O)c1ccc(N2CCN(C(=O)c3ccccc3Br)CC2)c(F)c1	5.5

Next section:
mol	H5N1 antiviral
CC(=O)NNC(=O)C(O)(c1ccccc1)c1ccccc1	0.3
c1ccc(-n2ncc3c2ncn2nnnc32)cc1	i
Cc1nnc(SCSc2nnc(C)s2)s1	0.1
CCN1C(=O)C(O)(CC(=O)c2ccc3c(c2)OCCO3)c2ccccc21 (stereo unspecified)	i
CCOC(=O)c1c(-c2ccc(C)cc2)csc1NC(=O)C1CC=CCC1C(=O)O (stereo unspecified)	i
CCOC(=O)c1oc2ccc3c(c2c1C)C(=O)CC1(CCN(C(=O)OCC)CC1)O3	0.5
Cc1ccc(N2C(=O)SC(N(CC(=O)O)c3cccc(C)c3)C2=O)cc1 (stereo unspecified)	i
CCCC(=O)Nc1cnc(NC(=O)c2cccc(F)c2)cc1C	0.0
Cc1cc(C(=O)CSc2nc3ccc(Cl)cc3[nH]2)c(C)n1CC1CCCO1 (stereo unspecified)	8.0
CCc1nnc(NC(=O)CCC(=O)NCc2ccccc2OC)s1	0.2
Cc1ccc(C)c(Cn2cnc3c(nnn3-c3ccc(F)cc3)c2=O)c1	i
COC(=O)C1=C(C)NC(C)=C(C(=O)OC)C1c1ccc(NC(C)=O)cc1	i
Cc1ccccc1-n1nc2c(c1NC(=O)c1ccc(Br)o1)CSC2	0.6
O=C(CCC(=O)N(CC(=O)NC1CCCC1)C1CCCC1)Nc1ccccn1	0.1
CC1CN(S(=O)(=O)Cc2ccccc2)CC(C)O1 (stereo unspecified)	i
C(=N\n1cnnc1)/c1cn(Cc2ccccc2)c2ccccc12	0.3

These rows are one share of the data. The share of hits here may be higher or lower than overall.
